# FGF22 binding: binders of recombinant human FGF22 by thermal shift. actives 1.5% (n = 340,000). calls only at 9.99 µM. SYPRO orange fluorescence; percent of sucrose octasulfate shift, DMSO zero. AID 651658;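 active means melting point raised past a set limit in the mean and every replicate; three in four hits are not shown here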
# Target sequence (Q9HCT0 whole entry, looked up): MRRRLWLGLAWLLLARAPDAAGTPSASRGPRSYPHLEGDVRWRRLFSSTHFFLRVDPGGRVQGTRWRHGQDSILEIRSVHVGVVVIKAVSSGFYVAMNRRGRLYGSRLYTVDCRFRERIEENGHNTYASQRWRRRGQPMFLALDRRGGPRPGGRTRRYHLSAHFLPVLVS
# Calls only; i = inactive; + = active, no number.
SMILES,FGF22 binding
COc1ccc(-c2cnc3c(c2)C(=O)N([C@H](C)CO)C[C@H](C)[C@H](CN(C)C(=O)NC(C)C)O3)cc1,i
Cc1ccc(S(=O)(=O)Nc2ccc3c(c2)CC(=O)N([C@H](C)CO)C[C@H](C)[C@@H](CN(C)C(=O)NC(C)C)O3)cc1,i
Cc1ccc(S(=O)(=O)N[C@H]2C=C[C@H](CC(=O)N3CCc4ccccc4C3)O[C@H]2CO)cc1,+
COc1ccccc1NC(=O)N1CC[C@H]2[C@@H]1c1cc(C#Cc3ccc(F)cc3)ccc1N(C)[C@H]2CO,i
C[C@@H]1CN([C@@H](C)CO)C(=O)c2cc(NC(=O)CCN3CCOCC3)ccc2O[C@H]1CN(C)Cc1ccc(-c2ccccc2)cc1,i
C[C@@H]1CN([C@@H](C)CO)C(=O)c2cc(NS(=O)(=O)c3cn(C)cn3)ccc2O[C@@H]1CN(C)Cc1ccc(-c2ccccc2)cc1,i
C[C@H]1CN([C@@H](C)CO)C(=O)c2cc(C#CC3CCCCC3)cnc2O[C@@H]1CN(C)S(=O)(=O)c1ccccc1,i
Cc1noc(C)c1NC(=O)N(C)C[C@H]1Oc2c(NS(=O)(=O)c3ccc(Cl)cc3)cccc2C(=O)N([C@H](C)CO)C[C@@H]1C,i
C[C@H](CO)N1C[C@H](C)[C@H](CN(C)Cc2ccc(Oc3ccccc3)cc2)Oc2ncc(-c3cccnc3)cc2C1=O,i
C[C@@H](O)C#Cc1ccc([C@@H]2[C@H](CO)N3CCCCN(S(=O)(=O)c4ccccc4)C[C@@H]23)cc1,i
COc1ccc(CN(C)C[C@H]2OCCCC[C@@H](C)Oc3ccc(NC(=O)C4CCCCC4)cc3C(=O)N([C@@H](C)CO)C[C@@H]2C)cc1,i
C[C@@H]1CN([C@@H](C)CO)S(=O)(=O)c2ccc(C#Cc3ccccc3)cc2O[C@H]1CN(C)C(=O)Cc1ccccn1,i
CCCN(C)C[C@H]1OCCCC[C@@H](C)Oc2ccc(NC(=O)CCC(F)(F)F)cc2C(=O)N([C@H](C)CO)C[C@H]1C,i
CCCC(=O)Nc1ccc2c(c1)C(=O)N(C)[C@H]1CC[C@@H](CC(=O)Nc3ccccc3)O[C@H]1CO2,i
O=C(NC1CCCC1)N[C@@H]1C=C[C@@H](CC(=O)N2CCOCC2)O[C@H]1CO,i
COCC(=O)Nc1ccc2c(c1)C(=O)N(C)C[C@H](OC)[C@@H](C)CN(Cc1cccnc1)[C@@H](C)CO2,i
COc1cccc(C#Cc2ccc([C@@H]3[C@@H](CO)N(C(=O)c4ccccn4)[C@H]3C#N)cc2)c1,i
O=C(Nc1ccc(Cl)cc1)N[C@H]1CC[C@@H](CCn2cc(C3(O)CCCC3)nn2)O[C@H]1CO,i
C[C@H]1CN([C@@H](C)CO)C(=O)Cc2cc(NC(=O)NC3CCCCC3)ccc2O[C@H]1CN(C)C(=O)Nc1ccc(F)cc1,i
C[C@@H]1CN([C@H](C)CO)C(=O)c2cc(/C=C/c3ccccc3)cnc2O[C@@H]1CN(C)S(=O)(=O)c1cccs1,i
C[C@@H]1CCCCO[C@H](CN(C)Cc2ccc(C(F)(F)F)cc2)[C@H](C)CN([C@H](C)CO)C(=O)c2cc(NC(=O)CCCN(C)C)ccc2O1,i
COc1ccc2c3c(n(C)c2c1)[C@@H](CO)N(C(=O)C1CCCC1)CC31CCN(Cc2cccc(F)c2)CC1,i
C=CCN1C(=O)[C@@]2(O[C@@H](CCO)[C@H]([Si](C)(C)c3ccc(OC)cc3)[C@H]2C)c2cc(N3CCCCC3=O)ccc21,i
C[C@@H]1CCCCO[C@@H](CN(C)C(=O)Nc2ccc3c(c2)OCO3)[C@H](C)CN([C@@H](C)CO)C(=O)c2cc(NC(=O)c3ccccc3)ccc2O1,i
Cc1noc(C)c1NC(=O)Nc1ccc2c(c1)C(=O)N([C@@H](C)CO)C[C@@H](C)[C@H](CN(C)Cc1ccncc1)O2,i
Cc1noc(C)c1NC(=O)Nc1ccc2c(c1)C(=O)N([C@@H](C)CO)C[C@H](C)[C@@H](CN(C)Cc1ccncc1)OCCCC[C@H](C)O2,i
CN(C)C(=O)c1ccc(-c2ccccc2[C@H]2[C@@H](C#N)N(C(=O)C3CCCCC3)[C@H]2CO)cc1,i
CN1CCN(C(=O)C[C@@H]2CC[C@H]3[C@@H](COC[C@@H](O)CN3C(=O)c3ccccc3F)O2)CC1,i
C[C@H](CO)N1C[C@H](C)[C@@H](CN(C)C(=O)CCC(F)(F)F)OCCCC[C@H](C)Oc2ccc(NC(=O)Nc3ccccc3)cc2C1=O,i
C[C@@H](NC(=O)C[C@@H]1C=C[C@H](NC(=O)C2CC2)[C@@H](CO)O1)c1ccccc1,i
O=C(C[C@@H]1C=C[C@H](NC(=O)Nc2ccc3c(c2)OCO3)[C@@H](CO)O1)NCc1ccccc1,i
COC(=O)[C@]12C[C@H](CC(=O)NCc3cccc4ccccc34)C(=O)N(Cc3ccccc3)C1=C[C@H](C(C)(C)C)O[C@@H]2C,i
CCS(=O)(=O)Nc1ccc2c(c1)C(=O)N(C)[C@H]1CC[C@@H](CC(=O)Nc3ccccc3)O[C@H]1CO2,i
Cc1ccc(S(=O)(=O)Nc2cccc3c2O[C@@H](CN(C)S(=O)(=O)c2ccccc2)[C@@H](C)CN([C@@H](C)CO)C3=O)cc1,i
CS(=O)(=O)Nc1ccc2c(c1)[C@H]1C[C@H](CC(=O)NCc3ccc(Cl)cc3)O[C@H](CO)[C@H]1O2,i
CCCC#Cc1ccc(CC[C@H]2O[C@H]3CC[C@H](CO)O[C@H]3C[C@H]2NC(=O)CN2CCOCC2)cc1,i
O=C(NCC1CCCCC1)[C@H]1N[C@H]2c3ccc(C4=CCCC4)c(=O)n3C[C@H]2[C@@H]1CO,i
COc1cccc(-c2ccc3c(c2)O[C@@H](CN(C)C(=O)C2CCCCC2)[C@@H](C)CN([C@H](C)CO)S3(=O)=O)c1,i
CCCNC(=O)C[C@H]1C[C@H]2c3cc(NC(=O)NC4CCCCC4)ccc3O[C@H]2[C@@H](CO)O1,i
CN(C)C(=O)c1cccc(-c2ccc([C@@H]3[C@H]4CN(S(C)(=O)=O)CCCCN4[C@H]3CO)cc2)c1,i
C/C=C/c1ccc([C@H]2[C@@H](CO)N3CCCCN(S(=O)(=O)c4ccccc4)C[C@@H]23)cc1,i
C[C@@H]1CCCCO[C@H](CN(C)CC2CCCCC2)[C@H](C)CN([C@@H](C)CO)C(=O)c2cc(NC(=O)c3ccccc3)ccc2O1,i
Cn1cnc(S(=O)(=O)N2CC[C@@H]3[C@H](CO)Nc4ccc(C5=CCCCC5)cc4[C@@H]32)c1,i
CN(C)C(=O)c1ccc(-c2ccc([C@H]3[C@@H](CO)N4CCCCN(C(=O)C5CC5)C[C@H]34)cc2)cc1,i
C[C@@H]1CN([C@@H](C)CO)C(=O)c2cc(NC(=O)C3CCCCC3)ccc2O[C@@H](C)CCCCO[C@@H]1CN(C)CC1CCCCC1,i
COCC(=O)Nc1ccc2c(c1)OC[C@H](C)N(C(=O)COC)C[C@@H](C)[C@@H](OC)CN(C)C2=O,i
CO[C@H]1CN(C)C(=O)c2ccc(NC(=O)c3ccno3)cc2OC[C@@H](C)NC[C@H]1C,i
CO[C@H]1CN(C)C(=O)c2ccc(NC(=O)C3CC3)cc2OC[C@@H](C)N(C(=O)c2ccccc2F)C[C@H]1C,i
C[C@H](CO)N1C[C@H](C)[C@H](CN(C)Cc2ccc(C(=O)Nc3ccccc3N)cc2)Oc2c(NS(C)(=O)=O)cccc2C1=O,i
O=C1CN(Cc2ccccc2)C[C@@H]2[C@H](c3ccc(Br)cc3)[C@H](CO)N12,i
COc1ccccc1NC(=O)N[C@@H]1CC[C@@H](CCn2cc(-c3ccccc3)nn2)O[C@@H]1CO,i
COCC(=O)Nc1ccc2c(c1)OC[C@H](C)NC[C@@H](C)[C@H](OC)CN(C)C2=O,i
C[C@H]1CN([C@@H](C)CO)C(=O)c2cccc(NC(=O)CCCCCC(=O)Nc3ccccc3N)c2O[C@H]1CN(C)S(C)(=O)=O,i
C[C@H](CO)N1C[C@H](C)[C@@H](CN(C)C)Oc2c(NC(=O)Nc3ccccc3)cccc2C1=O,i
C[C@H](CO)N1C[C@H](C)[C@@H](CN(C)C(=O)Nc2ccc(F)cc2)OCCCC[C@H](C)Oc2ccc(NS(C)(=O)=O)cc2C1=O,i
CN1C(=O)c2cc(NS(=O)(=O)c3ccc(Cl)cc3)ccc2OC[C@@H]2O[C@H](CC(=O)N3CCc4ccccc4C3)CC[C@@H]21,i
CO[C@H](CN(C)S(=O)(=O)c1ccc(Cl)cc1)[C@@H](C)CN(C(=O)Nc1ccccc1F)[C@H](C)CO,i
Cc1ccc(S[C@]2(C(=O)NC3CC3)CC(=O)N(C3CCCCC3)[C@@H]2c2ccc(CO)cc2I)cc1,i
COc1ccc(S(=O)(=O)Nc2ccc3c(c2)C(=O)N([C@@H](C)CO)C[C@H](C)[C@@H](CN(C)C(=O)Cc2ccccc2)OCCCC[C@H](C)O3)cc1,i
COCC(=O)N1C[C@H](C)[C@H](OC)CN(C)C(=O)c2cc(NC(=O)NC(C)C)ccc2OC[C@H]1C,i

# (next part)
SMILES,FGF22 binding
CCCNC(=O)C[C@@H]1CC[C@H]2[C@H](COc3ccc(NC(=O)COC)cc3C(=O)N2C)O1,i
CCCNC(=O)N1C[C@H](C)[C@H](OC)CN(C)C(=O)c2ccc(NC(=O)C3CCC3)cc2OC[C@H]1C,i
COc1ccc2c3c([nH]c2c1)[C@H](CO)N(C(=O)Nc1ccc(F)cc1)CC31CCN(CC2CC2)CC1,i
C[C@@H]1CN([C@H](C)CO)C(=O)c2cc(NC(=O)c3ccncc3)ccc2O[C@@H]1CN(C)C(=O)Nc1ccc(C(F)(F)F)cc1,i
CC(C)NC(=O)Nc1ccc2c(c1)C(=O)N([C@@H](C)CO)C[C@@H](C)[C@@H](CN(C)C(=O)Nc1ccc(C(F)(F)F)cc1)OCCCC[C@H](C)O2,i
C[C@H](CO)N1C[C@H](C)[C@@H](CN(C)C(=O)C2CCCCC2)Oc2cc(C3=CCCCC3)ccc2S1(=O)=O,i
COc1ccccc1CN1[C@@H]2c3ccc(C4=CCCCC4)c(=O)n3C[C@H]1[C@H](CO)[C@H]2C(=O)N(C)C,i
COc1ccccc1S(=O)(=O)N1C[C@@H](O)COC[C@@H]2O[C@@H](CC(=O)O)CC[C@H]21,i
COc1ccc(NC(=O)Nc2ccc3c(c2)C(=O)N([C@H](C)CO)C[C@H](C)[C@H](CN(C)C)OCCCC[C@H](C)O3)cc1,i
COc1ccc2c3c(n(C)c2c1)[C@H](CO)N(C(=O)NC1CCCC1)CC31CCN(C)CC1,i
C[C@H]1CCCCO[C@@H](CN(C)Cc2ccc3c(c2)OCO3)[C@@H](C)CN([C@@H](C)CO)C(=O)c2cc(N(C)C)ccc2O1,i
CCN(C[C@H]1[C@H](c2ccccc2)[C@@H](CO)N1C(C)=O)C(=O)c1ccccn1,i
COc1ccc2c3c(n(C)c2c1)[C@H](CO)N(C)CC31CN(C(=O)NC(C)C)C1,i
C[C@H](CO)N1C[C@H](C)[C@@H](CN(C)S(=O)(=O)c2ccc(Cl)cc2)Oc2ccc(NC(=O)c3ccncc3)cc2CC1=O,i
C[C@H](CO)N1C[C@H](C)[C@H](CN(C)Cc2ccncc2)Oc2ncc(-c3cccc(C#N)c3)cc2C1=O,i
CN(C)CC(=O)Nc1ccc2c(c1)[C@H]1C[C@H](CC(=O)N3CCCCC3)O[C@H](CO)[C@H]1O2,i
COc1cccc(C(=O)N2C[C@@H]3[C@H](c4ccccc42)[C@H](CO)N3Cc2ccccc2Cl)c1,i
C[C@H](CO)N1C[C@H](C)[C@H](CN(C)C(=O)Cc2ccccc2)Oc2ncc(-c3ccccc3)cc2C1=O,i
CCC(=O)N1C[C@H](C)[C@H](OC)CN(C)C(=O)c2ccc(NC(=O)c3cnccn3)cc2OC[C@H]1C,i
O=C(C[C@@H]1C[C@@H]2c3cc(NC(=O)C4CCOCC4)ccc3O[C@@H]2[C@H](CO)O1)NC1CCCC1,i
CC(C)NC(=O)N(C)C[C@@H]1Oc2ccc(NC(=O)CCC(F)(F)F)cc2CC(=O)N([C@@H](C)CO)C[C@@H]1C,i
O=C(Nc1ccc2c(c1)[C@H]1C[C@@H](CC(=O)N3CCOCC3)O[C@@H](CO)[C@H]1O2)Nc1ccccc1F,i
C[C@@H]1CN([C@@H](C)CO)C(=O)c2cc(C3=CCCCC3)cnc2O[C@@H]1CN(C)C(=O)c1ccncc1,i

# These rows are one share of the data. The share of hits here may be higher or lower than overall.
